# Screening data (PubChem BioAssay)
# TRPML1 inh = human mucolipin-1 channel inhibition | 0.02% of 390,000 active | Q9GZU1 | AID 624415 | TRPML1-inducible cells, Ca2+ dye fluorescence, FDSS; stronger effect = lower value; inhibition of EC80 agonist-evoked calcium signal | activity change, negative = inhibition, % (concentration not given with the values); in the data active means activity change below about -50%; inconclusive means about -30% to -50%; inactive means above about -30%;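 also: stimulus is agonist 54-4 at its EC80 concentration; % is scaled to controls: 0 for no effect and ±100 for the full control effect; compound concentration not given in the record; the text of the record puts the active cut at -80%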
# Target sequence (Q9GZU1 whole entry, looked up): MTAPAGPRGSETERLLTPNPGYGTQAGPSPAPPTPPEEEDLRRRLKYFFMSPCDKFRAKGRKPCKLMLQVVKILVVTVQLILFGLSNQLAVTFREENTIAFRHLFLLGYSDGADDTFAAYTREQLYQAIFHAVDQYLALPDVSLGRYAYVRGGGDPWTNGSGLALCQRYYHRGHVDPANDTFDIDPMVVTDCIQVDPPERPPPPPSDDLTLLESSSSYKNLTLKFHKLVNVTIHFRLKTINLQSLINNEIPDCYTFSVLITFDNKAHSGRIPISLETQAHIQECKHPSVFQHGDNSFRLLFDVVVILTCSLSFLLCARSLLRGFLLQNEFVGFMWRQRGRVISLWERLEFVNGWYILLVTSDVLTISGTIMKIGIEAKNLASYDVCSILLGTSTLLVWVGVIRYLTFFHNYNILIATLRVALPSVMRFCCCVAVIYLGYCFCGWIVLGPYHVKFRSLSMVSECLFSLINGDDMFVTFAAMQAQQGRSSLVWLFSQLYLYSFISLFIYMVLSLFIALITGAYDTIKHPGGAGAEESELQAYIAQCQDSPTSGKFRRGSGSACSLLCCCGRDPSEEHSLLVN
#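 TRPML1-DL cells, Tet-induced overnight (~16 h, 37 °C) at 1,500 cells/well, were loaded with Ca8 no-wash dye plus quencher for 45-90 min at room temperature. Compounds were pinned during FDSS kinetic reading; agonist 54-4 at EC80 (4 uM final) then added.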
# Six1-Eya2 inh = Six1/Eya2 interaction inhibition; Q15475+O00167; AlphaScreen GST-Six1/His-Eya2 binding, biochemical; stronger effect = lower value; control for the full effect not named in the record; activity change, % (test concentration not listed); 0.56% of 360,000 active; in the data active = activity change below about -65%; inconclusive = about -30% to -65%; inactive = above about -30%; also: % is scaled to controls: 0 for no effect and ±100 for the full control effect; compound concentration not given in the record
#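 GST-Six1 + His-Eya2 (5X stock: 250/500 nM); Tris pH 8.0, 300 mM NaCl, 0.05% BSA, 0.02% Tween 20; GSH donor/Ni acceptor beads; 1 h 37 °C dark; AlphaScreen readout.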
# TRPML1 agonist = human mucolipin-1 channel agonism; activation, % (no concentration beside the values); 0.12% of 410,000 active; AID 624414; Q9GZU1; TRPML1-expressing cells, Ca2+ dye fluorescence, FDSS; host cell line not named in the record; reference of the full effect not given here; in the data active = activation above about 50%; inconclusive = about 30% to 50%; inactive = below about 30%; also: 0% is about no effect; the text of the record puts the active cut at 80%
#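 Tet-induced TRPML1-DL cells, 1,500 per well, cultured overnight, were loaded with a no-wash Ca2+ dye for 45–90 min. Calcium fluorescence was recorded on the FDSS for 110 s after compound addition, before the EC80 agonist (4 uM 54-4) was added.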
# PINK1 modulator = PINK1 expression modulation. 0.2% of 410,000 active. Potency, µM (series often up to 76.6 µM), for inactives: at the highest dose activation (PINK1 increase), actives largely listed as activators. AID 624263. PINK1 immunofluorescence, high-content cytometry, 24 h; active = well fitted activation curve with a large enough effect; inconclusive = small, poorly fitted or top-dose-only effect; inactive = flat fitted curve, though single readings scatter; cell line not stated here;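 also: potency is read from the fitted curve at half-maximal effect; % of control where 0% means no effect; nearly all actives have a fitted effect of over 65% in size; a mitochondrial uncoupler was the plate control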
#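 PINK1 protein level read as immunofluorescence by microplate cytometer in a fixed, stained stable cell line after 24 h exposure to five compound concentrations, with CCCP as control.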
# CtBP-E1A inh = CtBP/E1A binding inhibition; AlphaScreen GST-E1A/His-CtBP binding, 1536-well; stronger effect = lower value; control for the full effect not named in the record; activity change, % (test concentration not listed); 0.49% of 340,000 active; in the data active means activity change below about -65%; inconclusive means about -30% to -65%; inactive means above about -30%; also: % is scaled to controls: 0 for no effect and ±100 for the full control effect; compound concentration not given in the record
#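 Protein mix (5X: 125 nM each GST-E1A, His-CtBP) was incubated with pinned compound 2 h at 37 deg C in dark, in 50 mM Tris pH 8.0 buffer with 300 mM NaCl. Glutathione donor and nickel acceptor beads followed; AlphaScreen signal read after 1 h.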
# D2 ag = activates the human D2 dopamine receptor; P14416; activation, % (test concentration not listed); DiscoveRx PathHunter D2 beta-arrestin, luminescence, 90 min; 100% = 57 uM dopamine signal; 0.084% of 360,000 active; in the data active = activation above about 40%; inconclusive = about 15% to 40%; inactive = below about 15%; also: compound concentration not given in the record; the text of the record calls up to 30% inactive
# Target sequence (P14416 whole entry, looked up): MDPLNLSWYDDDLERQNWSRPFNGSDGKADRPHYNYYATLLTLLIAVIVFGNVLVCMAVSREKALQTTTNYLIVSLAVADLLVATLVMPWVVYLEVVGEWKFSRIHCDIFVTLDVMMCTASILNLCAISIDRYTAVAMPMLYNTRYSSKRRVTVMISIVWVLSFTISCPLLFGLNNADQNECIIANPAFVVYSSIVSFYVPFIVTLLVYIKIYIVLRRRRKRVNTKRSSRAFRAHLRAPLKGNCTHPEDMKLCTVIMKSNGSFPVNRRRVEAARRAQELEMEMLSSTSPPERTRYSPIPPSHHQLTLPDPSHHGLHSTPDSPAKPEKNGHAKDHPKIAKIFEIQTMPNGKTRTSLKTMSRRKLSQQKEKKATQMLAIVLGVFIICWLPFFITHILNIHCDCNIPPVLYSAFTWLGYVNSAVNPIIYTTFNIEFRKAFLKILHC
#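 Agonist mode: compounds alone added to overnight-plated D2 PathHunter cells for 90 min at 37 C, with 57 uM final dopamine (EC100) defining full response. Beta-arrestin recruitment detected by chemiluminescent reagent, read after 1 h at ambient temperature.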
# Starred values were filed as active, the others as inactive; u = inconclusive; x = no result given; & = joins results of further samples; [ ] = another dose, or the depositor's remark.
SMILES,TRPML1 inh,Six1-Eya2 inh,TRPML1 agonist,PINK1 modulator,CtBP-E1A inh,D2 ag
NC(=O)C1CCCN(C(=S)Nc2cccc3ccccc23)C1 (stereo not given),7,0,-1.3,-1.1%,-25,3.6
O=C(COC(=O)c1ccc2ncsc2c1)Nc1ncc(Cl)cc1Cl,11,-11,0.2,1.2%,-6,-2.4
Cc1ccc(C(=O)N/C(=C\c2cn(S(=O)(=O)N(C)C)c3ccccc23)C(=O)NCCN2CCOCC2)cc1,5,-1,0.1,0.8%,2,-7.7
Cc1ccc2cc(C)c(SCC#N)nc2c1,-4,20,0.5,-0.7%,23,-2.0
Cc1csc(=O)n1CCC(=O)OCC(=O)Nc1ccc(N2CCOCC2)cc1,-1,2,-1.3,2.5%,3,0.3
Nc1ncc(Br)cc1N=Cc1ccccc1,-4,-1,14,2.3%,11,-2.1
CCC(C)(C)c1ccc(OCC(=O)Nc2ccncc2)cc1,14,6,-0.4,-0.1%,-3,-0.3
O=C(CCCC1=NS(=O)(=O)c2ccccc2N1)Nc1ccccc1,-5,3,0.3,1.8%,x,0.1
Cc1ccc(NC2c3ncccc3C(=O)N2C2CCCCC2)cc1 (stereo not given),4,-5,-0.4,12%[38.3 µM],-3,-1.1
O=C(NCc1ccncc1)c1ccc2nc([C@@H]3O[C@H](CO)[C@H](O)[C@H](O)[C@H]3O)[nH]c2c1,x,5,-0.2,-0.7%,2,-5.2
COc1ccc2cc3cc(C(=O)NCc4cccs4)oc3nc2c1,13,0,-0.4,7.8%,2,0.1
O=C(CSc1nnc2ccc(-c3cccnc3)nn12)Nc1cccc(F)c1,-3,0,0.2,-1.8%,9,-2.5
O=C(c1cccs1)N1CCN(CCc2ccccc2)CC1,-8,1,2.4,-1.5%[38.3 µM],4,5.6
COc1ccc(S(=O)(=O)N2CCOC2CNC(=O)C(=O)NCCN2CCOCC2)cc1 (stereo not given),-22,-1,1.6,1.5%,4,-3.8
COc1ccccc1OCCOCCOc1ccc(C)cc1Br,39,37,0.7,2.6%,31,0.8
COc1ccc(S(=O)(=O)Nc2cc(C)ccn2)cc1OC,-5,6,0.5,x,5,0.4
Cc1cc(NC(=O)c2ccc([N+](=O)[O-])cc2)n(CCC#N)n1,-4,0,0.2,14%,0,1.5
COc1ccccc1C1CC(c2ccc(NS(C)(=O)=O)cc2)=NN1S(=O)(=O)c1ccccc1 (stereo not given),10,2,0.1,-0.2%,-1,0.0
COC(=O)c1cccc(NC(=O)CN2CCC(NC(=O)c3cc(OC)c(OC)c(OC)c3)CC2)c1,-2,-4,0.2,-2.4%,6,-0.3
COCCNC(=O)COC(=O)c1cc(-c2ccc(OC)cc2)nc2ccccc12,-16,2,0.7,5.2%,13,-0.8
CC(C)c1ccc(/C=C/C(=O)NC(=S)Nc2ccc(CN3CCOCC3)cc2)cc1,-3,-8,0.9,-0.1%,-8,0.1
Cc1cccc(NC(=O)c2nc[nH]c2C(=O)NCc2ccccc2)c1,11,0,1.0,9.3%,-6,-4.3
CCN(CC)C(=O)CSc1nc2nc(C)cc(C)c2c(=O)[nH]1,26,1,0.7,7.0%[38.3 µM],0,2.1
Cc1c(C(=O)NCCc2ccc(Cl)cc2)sc2nc3n(c(=O)c12)CCCC3,19,x,2.0,2.6%,x,x
COC(=O)c1ccc(Nc2ccc3nonc3c2[N+](=O)[O-])cc1,5,1,0.8,7.7%,-4,3.3
CN(C)c1ccc(-c2ccnc3c2CC(C)(C(=O)NCc2ccc(F)c(F)c2)O3)cc1 (stereo not given),x,u,-1.2,4.3%,-22,4.4
CC1(C)CC(=O)C=C(Nc2ccc(Cl)c(Br)c2)C1,36,-13,0.5,-0.1%,-6,-4.0
CC(=O)c1c(C)[nH]c(C(=O)OCCOc2ccccc2)c1C,1,0,1.3,7.3%,2,-1.8
O=[N+]([O-])c1ccccc1/C=C/CN1CCSCC1,-7,0,-0.7,-2.1%,x,-1.3
CC(=O)c1ccc(NCC2COc3ccccc3O2)c([N+](=O)[O-])c1 (stereo not given),28,-23,4.1,8.0%,-18,-0.8
COc1ccc(C(=O)Nc2nc(CC(=O)NCc3ccc(F)cc3)cs2)cc1,-7,-3,1.9,13%,4,6.4
COC(=O)C1=C(C(=O)c2ccccc2)C(c2ccccc2)n2nnnc2N1 (stereo not given),14,7,-0.4,2.3%,-5,-0.8
COCCn1c(SCC(=O)c2c(-c3ccccc3)n(C)c3ccccc23)nnc1-c1ccncc1,-2,1,1.5,-1.4%,-6,0.4
COc1cccc(C2(O)CCN(C(=O)c3cccs3)CC2)c1,-7,-1,0.7,-0.6%,-1,-1.3
COC(=O)c1cc2oc3ccccc3c2n1CC(=O)Nc1ccc(C)cc1C,-9,x,-0.4,-0.1%,x,x
C=CCOC(=O)CCCCCCCC,10,-1,-0.7,0.5%,2,1.6
C=CC(=O)OCCOCCOCCOCCOC(=O)C=C,8,26,-0.5,23%,0,-3.2
CCC(=O)Nc1ccccc1-c1nc2ccccc2n(CC(=O)Nc2ccccc2OC)c1=O,-2,x,1.1,4.2%,x,x
COC(=O)c1sccc1NC(=O)Nc1ccc(OC)cc1OC,8,-7,0.6,1.3%,-19,-0.6
Cc1c(C(=O)NCc2ccccn2)oc2ccc(S(=O)(=O)N3CCOCC3)cc12,-8,0,0.3,1.2%,-2,-5.3
Cc1ccc(C(=O)N2CCN(c3ncccn3)CC2)cc1NC1=NC2CS(=O)(=O)CC2S1 (stereo not given),-6,-1,0.4,3.5%,0,-4.2
Cc1ccc(C)c(NC(=O)CSc2n[nH]c(-c3ccccn3)n2)c1,-7,-77*,0.0,-3.1%,-92*,-2.0
CCOc1ccccc1C(=O)NCC(=O)N(C)CC(=O)Nc1ccc(N2CCOCC2)cc1,2,1,0.3,0.2%,4,-1.9
Cc1sc(NC(=O)c2ccco2)c(C(c2cccnc2)N2CCC(C)CC2)c1C (stereo not given),4,-10,3.5,15%,-15,0.3
CCC(=O)NCC(c1ccco1)N1CCN(c2ccc(OC)cc2)CC1 (stereo not given),x,3,x,0.4%,-3,-1.0
Cn1nccc1C(=O)OCC(=O)Nc1ccccc1,-3,14,0.9,1.0%,0,-1.8
CCCc1ccc(OCC(=O)O)cc1,-8,1,-0.1,0.5%[38.3 µM],3,-3.1
CC(C)C(=O)Nc1ccc(C(=O)NNC(=O)CCc2ccccc2)cc1,11,14,-0.3,4.1%,4,-3.1
COc1cccc(C2=CC(c3ccccc3F)n3c(nc4ccccc43)N2)c1 (stereo not given),-3,x,4.1,1.2%,x,x
CC(C)Cc1nnc(NC(=O)CCc2c[nH]c3ccccc23)s1,-6,-13,-0.6,4.2%,-4,-5.5

# Only CtBP-E1A inh and TRPML1 agonist, for some of the entries so far:
SMILES,CtBP-E1A inh,TRPML1 agonist
CCOc1ccccc1C(=O)NCC(=O)N(C)CC(=O)Nc1ccc(N2CCOCC2)cc1,4,0.3
Cc1sc(NC(=O)c2ccco2)c(C(c2cccnc2)N2CCC(C)CC2)c1C (stereo not given),-15,3.5
CCC(=O)NCC(c1ccco1)N1CCN(c2ccc(OC)cc2)CC1 (stereo not given),-3,x

# An excerpt from above in order of their number in PINK1 modulator, falling:
Structure	TRPML1 inh	Six1-Eya2 inh	PINK1 modulator	CtBP-E1A inh	D2 ag
CC(C)Cc1nnc(NC(=O)CCc2c[nH]c3ccccc23)s1	-6	-13	4.2%	-4	-5.5
Cc1ccc(C(=O)N2CCN(c3ncccn3)CC2)cc1NC1=NC2CS(=O)(=O)CC2S1 (stereo not given)	-6	-1	3.5%	0	-4.2
Cn1nccc1C(=O)OCC(=O)Nc1ccccc1	-3	14	1.0%	0	-1.8

# Later entries.
SMILES,TRPML1 inh,Six1-Eya2 inh,TRPML1 agonist,PINK1 modulator,CtBP-E1A inh,D2 ag
O=S(=O)(c1ccccc1)c1nc(-c2ccc(F)cc2)oc1N1CCCCCC1,41,x,0.4,0.1%,x,x
CCN(CC(=O)Nc1ccccc1OC)C(=O)c1cccc(-n2cccc2)c1,-6,-16,-0.4,-2.6%,7,-1.9
CCN1CCN(CCOc2ccc(Cl)cc2)CC1,-6,3,0.5,-1.5%,-19,-0.6
CC(NCCC(c1ccccc1)c1ccccc1)c1ccccc1 (stereo not given),6,-4,-0.8,u,1,-1.2&2.9
CCOc1cc(C(=O)N(Cc2nc(-c3ccc(C)cc3)no2)C(C)C)cc(OCC)c1OCC,42,x,3.3,3.0%,x,x
COc1ccc(CNc2nc3ccccc3n2C)c(O)c1,-7,-14,-0.9,1.8%,-11,-2.9
Cc1cc(-c2ccccc2)nc(SC(C(=O)O)c2ccccc2)n1 (stereo not given),-18,10,2.5,0.5%,8,3.6
COc1ccccc1CC(NC(C)=O)C(=O)NC1CCN(S(=O)(=O)c2ccccc2)CC1 (stereo not given),-5,4,-0.4,2.7%,1,-3.7
C/C(=N/NS(=O)(=O)c1ccc(Br)cc1)c1ccc(C)o1,-8,7,0.2,1.8%,-2,-2.5
Cc1ccc(NC(=O)COC(=O)c2cccc(C)c2[N+](=O)[O-])cc1S(=O)(=O)N1CCCCC1,17,-14,1.5,4.1%,u,-1.0
Cc1ccc(NC(=O)CN(C)S(=O)(=O)c2cccs2)cc1F,-8,14,0.6,-3.2%,-5,-2.2
Cc1cc(C)c(NC(=O)CCCN2CCOCC2)c(C)c1,1,5,1.5,u,3,-5.0
Cc1ccc(-c2nnc(-c3ccccc3)o2)cc1,48,19,1.1,2.1%,2,-0.5
O=[N+]([O-])c1ccc(-[n+]2nc(-c3ccccc3)nn2-c2ccccc2)cc1,19,-82*,0.1,1.6%,-92*,0.1
O=C(Nc1ccc2c(c1)C(N1CCOCC1)c1ccccc1-2)C(F)(F)F (stereo not given),18,-7,0.9,0.6%,-3,-0.6
Cc1cnc(C(=O)OCC(=O)N2c3ccccc3CC2C)cn1 (stereo not given),57,19,-0.1,3.9%,22,-3.3
O=C(Cc1cccs1)N1CCN(S(=O)(=O)c2ccc(Cl)c(C(F)(F)F)c2)CC1,-2,13,0.5,0.0%,x,3.1
CCN(CC(=O)Nc1c(F)cccc1F)C(=O)C1CCN(c2ncnc3sc(C)c(C)c23)CC1,-6,u,-0.5,0.8%,0,-2.7
COc1ccccc1-c1nnc2sc(-c3cnccn3)nn12,24,-6,1.2,-0.9%[38.3 µM],-24,-0.6
CC1(c2nnc(-c3ccccc3)o2)CC(c2c(Cl)cccc2Cl)=NO1 (stereo not given),5,5,2.1,-1.2%,10,6.5

# Single records, from the list above. Screens in order: TRPML1 inh, Six1-Eya2 inh, TRPML1 agonist, PINK1 modulator, CtBP-E1A inh, D2 ag
# Results for O=[N+]([O-])c1ccc(-[n+]2nc(-c3ccccc3)nn2-c2ccccc2)cc1 = 19, -82*, 0.1, 1.6%, -92*, 0.1
# Results for CC1(c2nnc(-c3ccccc3)o2)CC(c2c(Cl)cccc2Cl)=NO1 (stereo not given) = 5, 5, 2.1, -1.2%, 10, 6.5
# Results for Cc1cnc(C(=O)OCC(=O)N2c3ccccc3CC2C)cn1 (stereo not given) = 57, 19, -0.1, 3.9%, 22, -3.3
